# Screening data: PubChem BioAssay, National Center for Advancing Translational Sciences (NCATS)
# VDR inh = Inhibitors of the vitamin D receptor (VDR): qHTS | Vitamin D3 receptor (Homo sapiens), P11473 | VDR-SRC2-3 peptide fluorescence polarization, 2 h | Potency, µM, without a hit: max response, negative = inhibition, actives largely listed as inhibitors | 400,000 compounds, 0.93% hits; active = well fitted inhibition curve with a large enough effect; inconclusive = small, poorly fitted or top-dose-only effect, or another doubt; inactive = no such curve, though single readings can be large or run the other way; also: series mostly up to about 120 µM
# Target sequence (P11473 whole entry, looked up): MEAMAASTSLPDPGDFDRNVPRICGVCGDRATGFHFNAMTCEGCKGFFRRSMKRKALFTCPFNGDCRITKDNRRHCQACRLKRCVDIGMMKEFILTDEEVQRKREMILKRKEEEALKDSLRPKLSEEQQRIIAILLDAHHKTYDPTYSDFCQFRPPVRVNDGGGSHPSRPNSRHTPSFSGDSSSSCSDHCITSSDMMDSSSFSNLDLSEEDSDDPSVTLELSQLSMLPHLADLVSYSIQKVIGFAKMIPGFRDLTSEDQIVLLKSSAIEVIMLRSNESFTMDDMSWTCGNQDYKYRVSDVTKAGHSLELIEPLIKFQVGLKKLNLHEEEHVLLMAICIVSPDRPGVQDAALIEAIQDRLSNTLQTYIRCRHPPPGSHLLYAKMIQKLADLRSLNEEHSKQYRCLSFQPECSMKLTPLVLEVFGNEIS
#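 The screen uses fluorescence polarization to detect compounds that interfere with recruitment of the SRC2-3 coactivator peptide to VDR; plates are read after 2 h at room temperature.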
# * marks the source's active call; other numbers are inactive results; ? = inconclusive. % is scaled to controls: 0 for no effect and ±100 for the full control effect; potency is read from the fitted curve at half-maximal effect.
structure | VDR inh
O=C(Cn1nnc2ccccc21)Nc1ccccc1[N+](=O)[O-] | -15%
COc1ccccc1-n1c(SCC(=O)Nc2cccc(C(=O)O)c2)nnc1-c1ccccc1O | -10%
O=C(NNC(=O)C1CC2CCC1C2)c1sc2ccccc2c1Cl (stereo unspecified) | -14%
CC/C(=N\NC(=O)C1CC1)c1cccc(Cl)c1 | -15%
O=C(c1cnccn1)N1CCc2c([nH]c3ccccc23)C1c1cccc(Cl)c1 (stereo unspecified) | -2%
CC1=NNC(=O)/C1=C\c1cn(-c2ccccc2)nc1-c1cccs1 | 10µM*
COC(=O)c1ccc(CNC(=O)Cn2cnc3c(OCc4ccccc4)ncnc32)cc1 | 9%
O=C(CCC(F)(F)F)N1CCCC(N2CCN(c3cccc(Cl)c3)CC2)C1 (stereo unspecified) | 1%
CCc1cccc(C)c1NC(=O)CO/N=C(\C)c1cc2ccccc2o1 | -4%
O=C(CN1CCN(c2ccccn2)CC1)Nc1ccc(Br)cc1 | 3%
COC(=O)c1ccc(N2CCN(S(=O)(=O)c3c(C)cc(C)cc3C)CC2)c([N+](=O)[O-])c1 | 3%
CSCCC(NC(=O)c1ccccc1Cl)C(=O)NCC(c1ccc(F)cc1)N1CCOCC1 (stereo unspecified) | -5%

# A run of entries taken from the entries so far:
structure | VDR inh
O=C(CCC(F)(F)F)N1CCCC(N2CCN(c3cccc(Cl)c3)CC2)C1 (stereo unspecified) | 1%
CCc1cccc(C)c1NC(=O)CO/N=C(\C)c1cc2ccccc2o1 | -4%
O=C(CN1CCN(c2ccccn2)CC1)Nc1ccc(Br)cc1 | 3%

# Further results follow.
structure | VDR inh
Cc1noc(C)c1S(=O)(=O)N1CCC2(CC1)OCCO2 | 0%
Cc1cc(-c2csc(NC(=O)c3ccc(S(=O)(=O)N(C)C)cc3)n2)c(C)n1-c1ccccc1 | 14%
CCCCNC(=O)c1cccc(-n2c(C)nc3cccnc32)c1 | 7%
C/C(=C\c1ccccc1)CN1CCN(c2ccccc2F)CC1 | -1%
Cc1ccc(CON=C2CCN(c3ncc(C(F)(F)F)cc3Cl)CC2)cc1 | -6%
Cc1ccc(NC(=O)CN(C)CC(=O)Nc2ccc(N3CCOCC3)cc2)c([N+](=O)[O-])c1 | -10%
Cc1ccc(N2CC(C(=O)OCC(=O)NNC(=O)c3ccccc3)CC2=O)cc1 (stereo unspecified) | -7%
CN1CCN(C(=O)c2ccc3c(=O)n(Cc4ccco4)c(=S)[nH]c3c2)CC1 | 16%
CCN(CCNC(=O)c1cc(C)nn1-c1ccccc1)c1ccccc1 | -1%
Nc1ccccc1-c1nnc(-c2ccc(-c3ccccc3)cc2)o1 | 2%
Cc1ccc(N2CC(C(=O)NCc3cccs3)CC2=O)cc1C (stereo unspecified) | 4%
COc1ccc(CC(=O)NCCCc2ccccc2)cc1OC | -4%

# Sorted by the number under VDR inh (lowest first): some entries from above.
Molecule | VDR inh
Cc1ccc(CON=C2CCN(c3ncc(C(F)(F)F)cc3Cl)CC2)cc1 | -6%
CCN(CCNC(=O)c1cc(C)nn1-c1ccccc1)c1ccccc1 | -1%
Cc1noc(C)c1S(=O)(=O)N1CCC2(CC1)OCCO2 | 0%
Nc1ccccc1-c1nnc(-c2ccc(-c3ccccc3)cc2)o1 | 2%
CCCCNC(=O)c1cccc(-n2c(C)nc3cccnc32)c1 | 7%
CN1CCN(C(=O)c2ccc3c(=O)n(Cc4ccco4)c(=S)[nH]c3c2)CC1 | 16%

# (more compounds)
structure | VDR inh
C=C(Cl)COc1ccc2c(CCC)cc(=O)oc2c1 | 21%
CCC1Sc2ccc(S(=O)(=O)CCC(=O)Nc3ccc(OC(F)(F)F)cc3)cc2NC1=O (stereo unspecified) | -14%
CC(C(C(=O)N1CCCCC1)N1CCCCC1)N1CCCCC1 (stereo unspecified) | -6%
CCC1CCc2c(sc(NC(=O)CSc3nc(-c4ccco4)cc(C(F)(F)F)n3)c2C#N)C1 (stereo unspecified) | -10%
COc1ccccc1N1C(=O)CC(Sc2ccccc2N)C1=O (stereo unspecified) | -1%
CN(C(=O)c1cccc(NC(=O)Cc2ccc(NC(=O)C3CCCN(C(=O)CCc4ccccc4)C3)cc2)c1)C1CC1 (stereo unspecified) | 2%
C/C=C(/CC[C@@H](C)[C@H]1CCC2C3=CC[C@H]4[C@H](C)[C@@H](O)CC[C@]4(C)C3CC[C@@]21C)C(C)C (stereo partly specified) | ?
CC(C)(C)Nc1nc2nonc2nc1NC(C)(C)C | -1%
Cc1nc2nc(CCc3ccccc3)nn2c(C)c1Cl | 10%
Cn1cnnc1SCC(=O)NC1CCCN(Cc2ccccc2F)C1 (stereo unspecified) | -19%
Cc1cc(=O)[nH]c(SCC(=O)Nc2cccc(S(=O)(=O)N3CCOCC3)c2)n1 | 3%
Cc1ccc(OCC(=O)c2cc(C)n(Cc3ccco3)c2C)c([N+](=O)[O-])n1 | 8%
CCOc1cc(-c2sc(Nc3ccccc3)n[n+]2-c2ccc(F)cc2)ccc1OC | 1%
Cc1ccc(CC2C(=O)N(c3ccccc3)C(=O)C2C)cc1 (stereo unspecified) | 11%
COC(=O)[C@@H]1C[C@H]2CC[C@H](O)C[C@H]2N1Cc1ccc(C(C)(C)C)cc1 | -16%
COc1ccc(N=CC2=C(O)CC(C)(C)CC2=O)cc1OC | -12%
c1ccc(-c2noc(CC3CCCCC3)n2)cc1 | 11%
O=C(COC(=O)C1(c2ccc(F)cc2)CCCC1)NC1CC1 | -3%
CCOc1ccc(C(=O)N/N=C/c2ccc(-c3ccc(S(=O)(=O)Nc4ncccn4)cc3)o2)cc1 | -3%
CC(=O)N1c2ccc(S(=O)(=O)N3CCC(C(=O)NCc4ccc(N(C)C)cc4)CC3)cc2CC1C (stereo unspecified) | -1%
CN1OC[C@@H]2CN[C@H](c3cccc(-c4ccc(C#N)cc4)c3)C[C@@H]21 | 1%
COc1ccc(NC(=O)C2CC(=O)n3c(nc4ccccc43)N2)cc1 (stereo unspecified) | -8%
O=c1[nH]c(NNC(=S)NCc2ccccc2)nc2c1C1(CCCCC1)Cc1ccccc1-2 | -14%
Cc1cc(C(=O)N/N=C/c2ccc(-c3ccc([N+](=O)[O-])cc3C)o2)n[nH]1 | -14%

# Next part, overlapping the part above by 5 compounds.
structure | VDR inh
CC(=O)N1c2ccc(S(=O)(=O)N3CCC(C(=O)NCc4ccc(N(C)C)cc4)CC3)cc2CC1C (stereo unspecified) | -1%
CN1OC[C@@H]2CN[C@H](c3cccc(-c4ccc(C#N)cc4)c3)C[C@@H]21 | 1%
COc1ccc(NC(=O)C2CC(=O)n3c(nc4ccccc43)N2)cc1 (stereo unspecified) | -8%
O=c1[nH]c(NNC(=S)NCc2ccccc2)nc2c1C1(CCCCC1)Cc1ccccc1-2 | -14%
Cc1cc(C(=O)N/N=C/c2ccc(-c3ccc([N+](=O)[O-])cc3C)o2)n[nH]1 | -14%
CCn1c(=O)cc(SCC(=O)Nc2ccc3c(c2)OCCO3)c2ccccc21 | -4%
CCN1CCN(Cc2ccc(C(=O)Nc3ccc(C)c(NCc4cnc(NC(=O)OC)cn4)c3)cc2C(F)(F)F)CC1 | -11%
CCN(CC)C(=O)CSc1nnc(COc2ccccc2)n1N | -2%
Cc1cccc(N2CCN(C(=O)c3cnn(-c4ccccc4Cl)c3C3CCN(C(=O)OC(C)(C)C)CC3)CC2C)c1 (stereo unspecified) | 3%
CSc1ncccc1C(=O)OCC(=O)c1cc(C)n(C)c1C | -21%
CC[C@H](C)N | 11%
CCn1c(SCc2nc(-c3cccs3)no2)nnc1-c1c[nH]c2ccccc12 | 6%
Nc1ccc(-c2nc3ccccc3[nH]2)cc1 | -20%
Cc1nn(-c2ccccc2)c2sc(C(=O)OCn3nnc4ccccc4c3=O)cc12 | 2%
CC(=O)Nc1ccc(N(C(=O)c2cnccn2)C(C(=O)NC2CCCCC2)c2ccc(F)cc2)cc1 (stereo unspecified) | -18%
CCCNC(=O)CN1C(=O)COc2ccc(S(=O)(=O)N3CCC(C)CC3)cc21 | 7%
Brc1cccc(-c2nnc(SCc3nc4ccccc4[nH]3)o2)c1 | -1%
COc1ccc(CC(=O)Oc2cc(C)ccc2C)cc1 | -6%
CCCN(C(=O)COC(=O)Cn1c(=O)oc2ccccc21)c1c(N)n(Cc2ccccc2)c(=O)[nH]c1=O | -1%
CC1CCN(C(=O)CSc2nnc3ccccn23)CC1 | -13%
CCOC(=O)/C(=C\c1ccc(OC(F)F)cc1)C1=Nn2c(nnc2-c2ccc(Cl)cc2)SC1 | 16µM*
C/C(=N\Nc1ccc(C(=O)O)cc1)c1ccc(Cl)s1 | -8%
CCOC(=O)C1C(=O)C=C(c2ccc(OC)cc2)CC1c1ccco1 (stereo unspecified) | ?
C=CCNC(=S)NNC(=O)C(CC(C)C)CC(C)O (stereo unspecified) | 10%
Cc1ccc(C)c(NS(=O)(=O)c2ccc3c(c2)NC(=O)CCS3)c1 | -7%
Cc1ccc(N(Cc2ccccc2)C(=O)c2cccc(S(=O)(=O)N3CCOCC3)c2)cc1 | 1%
CCN(C(=O)COc1cc(=O)n(CC)c2ccccc12)c1cc(Cl)ccc1OC | -9%
CC12CCC(=O)N1C(C(=O)Nc1ccc(F)c(F)c1F)CS2 (stereo unspecified) | -4%
COc1ccc(COC(=O)c2nc3nc(C)cc(C)n3n2)cc1F | -4%
O=C1c2ccccc2CN1C(CO)c1ccccc1 (stereo unspecified) | -3%
COC(=O)C1(C)Nc2ccccc2C(=O)N1c1ccccc1OC (stereo unspecified) | 4%
COc1ccccc1NC(=O)c1ccccc1C(=O)N(C)Cc1ccccc1 | 12%
O=C(Nc1ccc(-c2nc3ccccc3s2)cc1)C1=COCCO1 | -13%
Cc1ccc2nsnc2c1S(=O)(=O)N1CCN(Cc2ccc3c(c2)OCO3)CC1 | -18%
CCOC(=O)c1ccc(NC(=O)c2nc[nH]c2C(=O)NCCCCNC(=O)c2[nH]cnc2C(=O)Nc2ccc(C(=O)OCC)cc2)cc1 | -25%
CN(C(=O)COC(=O)c1ccccc1C(=O)c1ccccc1)c1ccccc1 | 18%
Cc1cccc(C)c1NC(=S)NN(Cc1ccccc1)c1ccccc1 | 1%
CCN1CCN(c2nc3ccccc3n3cnnc23)CC1 | -4%
COC(=O)c1ccc(COc2ccc(/C=N/Nc3cccc(C(=O)O)c3)cc2)cc1 | -19%
Cc1ccc(C(=O)CSc2nnc3ccc4ccccc4n23)cc1 | 11%
CCOc1ccccc1NC(=O)Cn1c(=O)n(Cc2ccccc2)c(=O)c2c3c(sc21)CN(C(C)=O)CC3 | 5%
COc1cc(Cl)c(C)cc1NC(=O)CNC(=O)Cn1cnc2ccccc2c1=O | 25%
CCOC(=O)c1c(NC(=O)c2ccncc2)sc(C)c1C | 3%
O=C(c1ccccc1)N1CCN(c2ccc([N+](=O)[O-])c(NCC3CCCO3)c2)CC1 (stereo unspecified) | -1%
Cc1cc(Cl)c2oc(C(=O)N3CCN(c4ccncc4)CC3)c(C)c2c1 | 12%
[O-]/[N+](=C/c1ccc(F)cc1)c1ccc(Cl)cc1 | 32µM*
CC(C)(C)NC(=O)C(c1ccc(O)cc1)N(Cc1ccco1)C(=O)Cn1nnc(-c2cccs2)n1 (stereo unspecified) | -2%
COC(=O)c1c(C(=O)OC)n(CCCN)c2ccc(C)cc12 | 11%
O=C(COC(=O)[C@@H]1CC(O)CN1S(=O)(=O)c1ccccc1[N+](=O)[O-])c1ccccc1 (stereo partly specified) | -8%
CC1Cc2cc(/C(O)=C3\C(=O)C(=O)N(CCN4CCOCC4)C3c3ccccc3F)ccc2O1 (stereo unspecified) | -4%
COc1cc2ccccc2cc1C(=O)OCC(=O)N(CC(C)C)c1c(N)n(Cc2ccccc2)c(=O)[nH]c1=O | -2%
Cc1cc(C)c2cc(CN(Cc3ccc4c(c3)OCO4)Cc3nnnn3Cc3ccco3)c(=O)[nH]c2c1 | 14%
CC(=O)c1ccccc1OCCn1nc(C(=O)O)c2ccccc2c1=O | -7%
CCN(CC(=O)Nc1c(F)cccc1F)C(=O)c1cc(C)oc1C | 7%
COc1ccc(CN2C(=O)[C@H]3Cc4c([nH]c5ccccc45)C(C)(C)N3C2=O)cc1 | -15%
CCCCC(c1nnnn1CC1CCCO1)N1CCN(c2cccc(C)c2C)CC1 (stereo unspecified) | -17%
COc1ccc(C(=O)c2sc(Nc3ccccc3)nc2N)cc1OC | -19%
COc1ccc(NC(=O)[C@H](CCS(C)(=O)=O)N2Cc3ccccc3C2=O)c(OC)c1 | -7%
CCOC(=O)c1sc2nc(C)nc(NCc3ccccc3OC)c2c1C | 13%
O=C(COc1ccc(Br)cc1)N1CCc2ccccc2C1 | 10%
CCCn1c2ccccc2c2nc3ccccc3nc21 | -13%
CC(=O)CSc1nnc(Cc2ccc3c(c2)OCO3)o1 | 9%
N/C(=N\OC(=O)C(c1ccccc1)c1ccccc1)c1ccncc1 | 5%
Cc1ccc(S(=O)(=O)Nc2cccc3c2CCCC3)cc1 | 22%
OCC1CCCN(c2nc(CN3CCCCC3)nc3scc(-c4ccccc4)c23)C1 (stereo unspecified) | -9%

# Further compounds:
structure | VDR inh
NC(=O)CSc1nc2c(oc3ccccc32)c(=O)n1Cc1ccccc1 | 3%
CN1CCN(c2ccc(NC(=O)c3ccc(-c4ccccc4F)o3)cc2)CC1 | -1%
COc1ccc(NC(=O)NCCc2c[nH]c3ccccc23)c(OC)c1 | -3%
O=[N+]([O-])c1ccc(NCc2ccccn2)nc1 | 12%
Cc1cccc(-c2nc(SCC(=O)NCC3CCCO3)c3c(=O)n(C)c(=O)n(C)c3n2)c1 (stereo unspecified) | 1%
O=C(Cn1cnc2ccccc2c1=O)c1ccc(OC(F)F)cc1 | 3%

# An excerpt, so the mix of outcomes need not match the whole.
